# Assay outcomes (PubChem BioAssay)
# YopH inh = blocks Yersinia enterocolitica YopH tyrosine phosphatase; fluorescence Ex485/Em525; inhibition, %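 (about 10 µM by stock and volumes)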; actives 0.16% (n = 140,000); AID 898;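 active = inhibition of 50% or more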;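 also: controls were vehicle for no effect and minimum signal wells for full effect; inactives centre near -20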
# Mtb bLac sens = beta-lactam sensitization of Mtb H37Rv. M. tuberculosis H37Rv growth with meropenem, percent inhibition; hits of this screen are not shown here. inhibition, % at 25 µM. actives 0.27% (n = 330,000). AID 434955;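 active = about 74% or more and at least 40 points above the plate without the antibiotic, then above 30% in a dose series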;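 also: growth measured after seven days incubation then overnight dye step; 0% = bacteria only wells and 100% = bacteria with antibiotic; twin plates without the antibiotic show which effects depend on it; some results filed as inactive read as strong as hits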
# Mtb H37Rv = M. tuberculosis H37Rv growth inhibitors, H37Rv strain (AID 1626); M. tuberculosis H37Rv growth inhibition; higher % means a stronger effect; inhibition, % at 10 µM, or IC50 in µM where a hit was titrated; actives 0.95% (n = 220,000);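 active = confirmed in a dose series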;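 also: bacteria incubated seven days before Alamar blue readout; 0% = bacteria only wells and 100% = bacteria with antibiotic wells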
# RecA intein inh = Mtb RecA intein splicing inhibition; P9WHJ3; cell-free RecA intein splicing, fluorescence; inhibition, %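 (about 9 µM by stock and volumes)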; actives 0.75% (n = 290,000); AID 2221; in the data active = inhibition above about 30%;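 also: 0% = vehicle wells and 100% = reference inhibitor control wells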
# Target sequence (P9WHJ3 whole entry, looked up): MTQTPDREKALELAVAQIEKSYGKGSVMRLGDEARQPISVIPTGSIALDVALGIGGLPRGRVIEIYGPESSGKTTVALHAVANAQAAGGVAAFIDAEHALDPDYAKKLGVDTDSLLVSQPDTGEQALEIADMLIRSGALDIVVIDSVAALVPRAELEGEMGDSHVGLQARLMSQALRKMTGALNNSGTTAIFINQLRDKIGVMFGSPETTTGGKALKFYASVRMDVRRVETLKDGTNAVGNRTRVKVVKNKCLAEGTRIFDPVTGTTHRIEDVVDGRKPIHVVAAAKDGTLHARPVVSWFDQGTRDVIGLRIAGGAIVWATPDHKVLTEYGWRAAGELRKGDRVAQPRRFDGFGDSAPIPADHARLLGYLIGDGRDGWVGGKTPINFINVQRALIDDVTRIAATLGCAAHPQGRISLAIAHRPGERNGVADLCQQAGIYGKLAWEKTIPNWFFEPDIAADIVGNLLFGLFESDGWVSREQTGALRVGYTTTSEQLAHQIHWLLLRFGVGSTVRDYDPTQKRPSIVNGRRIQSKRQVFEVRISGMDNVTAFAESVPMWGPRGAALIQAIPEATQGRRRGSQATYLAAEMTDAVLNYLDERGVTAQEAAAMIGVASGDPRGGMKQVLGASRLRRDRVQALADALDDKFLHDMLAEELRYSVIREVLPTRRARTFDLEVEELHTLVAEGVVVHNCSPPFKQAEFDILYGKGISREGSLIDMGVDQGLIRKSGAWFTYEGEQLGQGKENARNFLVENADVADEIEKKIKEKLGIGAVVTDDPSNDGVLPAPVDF
# Arbovirus inh = arbovirus infection inhibition; arbovirus infection cell-based antiviral screen; inhibition, % at 10 µM; actives 0.37% (n = 200,000);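 active = inhibition from about 30%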;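 also: bluetongue infection of BSR cells; cell survival read as ATP light after 72 h; 0% = infected wells without compound and 100% = uninfected wells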
# Arbovirus inh repeat = also measured in Arbovirus inh; calls as there; inhibition, %; measured here: 10K subset replicate screen; many hits read low in the repeat;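 first of two repeat runs on a subset; 0% = infected and 100% = uninfected wells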
# * = called active by the depositor; / = not tested or not shown. A portion of the library (hit frequency here may not be typical).
SMILES,YopH inh,Mtb bLac sens,Mtb H37Rv,RecA intein inh,Arbovirus inh,others
Cc1ccc(C2CC(C(F)(F)F)n3nc(C(=O)Nc4c(C)n(C)n(-c5ccccc5)c4=O)cc3N2)cc1 (centres undefined),/,-5,2%,-5.0,-1,
Cc1ccccc1S(=O)(=O)Nc1ncnc2scc(-c3ccccc3)c12,-22,7,4%,0.0,58*,
Cc1ccccc1-c1nnc(SCC(=O)NC2CCCCC2)o1,-34,71,3%,0.8,5,
Cc1ccc(CS(=O)Cc2ccc(C(=O)NCc3ccccc3Br)o2)cc1 (centres undefined),/,2,/,-1.2,/,
COc1cccc(CNS(=O)(=O)c2ccc3c(c2)CC(C)N3C(=O)C2CC2)c1 (centres undefined),/,-3,/,0.4,/,
COC(=O)c1c(O)cc(C(C)(C)C)n(-c2ccccc2)c1=O,-17,1,2%,-5.0,23,
CC(=O)c1ccc(Sc2nnnn2-c2ccccc2)c([N+](=O)[O-])c1,-32,98,47%,31*,-43,
CC1(C)CC(=O)C2=C(C1)OC(N)=C(C#N)C2c1cccs1 (centres undefined),/,-2,4%,/,4,
COc1ccc(CC(=O)Nc2c3c(nn2C(C)(C)C)CS(=O)(=O)C3)cc1OC,/,0,/,-1.0,/,
CCc1ccccc1NC(=O)CSc1nnc(Cn2cnc3ccccc32)o1,-28,-4,-6%,-2.4,1,
Cc1ccc2c(C(=O)CN3CC(C)CC(C)C3)c(C)[nH]c2c1 (centres undefined),/,-5,/,-0.6,/,
COc1cc(C[C@@H](CO)[C@H](CO)Cc2ccc(O)c(OC)c2)ccc1O,/,-7,-3%,1.6,/,
COc1ccccc1/C=C/C(=O)OCC(=O)Nc1ccccc1Sc1ccccc1,-10,5,-3%,0.4,0,
COc1ccc(S(=O)(=O)Nc2c(F)cccc2F)cc1,/,-1,-8%,-67,-3,
NC(=O)CC(NC(=O)c1ccc(Br)cc1)c1ccc(N2CCC(Br)CC2)c([N+](=O)[O-])c1 (centres undefined),/,-3,6%,-0.2,/,
Cc1ccsc1/C=N/NC(=O)Cc1cccn1C,-20,3,-7%,1.5,5,
c1csc(-c2nc(CN3CCSCC3)cs2)c1,/,-6,-6%,-1.2,/,
COC(=O)C1CCN(c2ccc(Cl)nn2)CC1,/,-8,-5%,0.1,-1,
CCOc1ccccc1-c1nc(CN2CCN(C(=O)c3ccco3)CC2)c(C)o1,/,-10,/,0.4,/,
COc1cccc(C(=O)N2CCN(Cc3ccco3)CC2)c1OC,-18,4,1%,-0.6,2,
CC(=O)C(Sc1nc(NC(C)(C)C)nc(N(C)C)n1)C(C)=O,-16,-1,0%,1.4,14,
COc1cccc(/C=N/NC(=S)NCCc2ccccc2)c1OC,/,2,/,4.5,/,
Cc1cccc2[nH]c(CN(C)C(=O)C3CCC(=O)N(C4CC4)C3)nc12 (centres undefined),/,4,/,-1.5,/,
COc1cccc(NC(=O)N2CCOCC2)c1,-26,-2,-8%,4.8,12,
C/C(N)=C(/C#N)C(=O)COC(=O)COc1ccc(Cl)cc1,-22,-3,0%,-0.9,18,
# (continued)
SMILES,YopH inh,Mtb bLac sens,Mtb H37Rv,RecA intein inh,Arbovirus inh,others
COc1ccc(CCNC(=O)/C(C#N)=C2\N=C(NC(=O)c3cccs3)c3ccccc32)cc1,-16,9,0%,2.7,2,
O=C(COC(=O)c1cccnc1)Nc1ccc2c(c1)OCO2,/,1,-8%,-3.0,2,
COc1cc(C2C(C(=O)c3ccc(C)o3)=C(O)C(=O)N2CCCn2ccnc2)cc(OC)c1OC (centres undefined),/,10,/,0.5,/,
CCC(C)C(NC(=O)C1CCC(C)CC1)C(=O)NCc1cccnc1 (centres undefined),-32,2,-2%,0.2,-2,Arbovirus inh repeat=2
FC(F)Oc1ccc(NC(=S)N2CCN(Cc3ccccc3)CC2)cc1,/,-18,2%,3.0,15,
CCOC(=O)C(Nc1ccc2ccccc2c1)C(=O)OCC,-19,99,1µM*,71*,-42,
Cc1cc(NCCO)c2cc(O)ccc2n1,0,1,-1%,-57,6,
CCN(CC(=O)Nc1c(F)cccc1F)C(=O)C1CCCN(C(=O)c2ccc(Cl)cc2)C1 (centres undefined),/,-4,/,7.7,/,
CC(OC(=O)CCC(=O)c1ccc(F)cc1)C(=O)NC1CCCCC1C (centres undefined),/,-6,/,2.8,/,
CC1=CC(=O)CC(C)(C)C1(O)/C=C/C(C)=C/C(=O)O (centres undefined),/,-1,-8%,-2.0,/,
COCCn1cnnc1SCC(=O)Nc1cccc(S(=O)(=O)N(C)c2ccccc2)c1,/,-5,-5%,-3.5,1,
CC(C)C[C@H](NC(=O)OC(C)(C)C)c1nnc(SCC(=O)Nc2ccc(Br)cc2)o1,-32,-9,-3%,2.5,8,
S=C(c1ccc(Cl)cc1)N1CCN(Cc2ccccc2)CC1,/,-7,-2%,5.3,11,
O=C(O)c1ccc(-c2noc(-c3cccc(C(F)(F)F)c3)n2)cc1,/,73,2%,-0.9,/,
Cc1ccc(C)c(S(=O)(=O)N2CCN(C(=O)CSc3ccccc3F)CC2)c1,/,-15,/,0.4,/,
CSc1nc(-c2ccccc2)nc(N2CCOCC2)c1C(C)=O,/,7,15%,5.1,-2,
CCOc1ccc(CNC(=O)CCn2c(=O)oc3ccccc32)cc1OC,0,-17,0%,-2.5,4,
CC(CN1CCN(C)CC1)OC(=O)c1ccccc1 (centres undefined),-16,-9,1%,-1.3,8,
Cc1cc2cc(CNC(=O)Nc3ccccc3)ccc2n1C,-40,14,4%,0.3,-5,
CCN(CC)c1ccc(CNc2ccc3c(c2)ncn3CC)cc1,/,63,/,-0.5,/,
C[C@@]12CCC=C[C@H]1[C@H](c1ccc3ccccc3c1Br)N(Cc1ccccc1)C2=O,/,7,-3%,13,/,
CCn1c(SCc2ccccc2)nc2c(c1=O)SCC2,/,5,2%,12,1,
Cc1ccccc1C(CC(=O)c1cccs1)C(C#N)C#N (centres undefined),-24,91,40%,63*,-35,
CC(C)Cn1c(N)c(C(=O)COC(=O)c2cc(-c3ccccc3)nc3ccccc23)c(=O)n(C)c1=O,-20,-6,7%,4.0,-1,
Cc1nnc(-c2cnn(C)c2N)n1Cc1ccccc1F,-18,-7,-5%,0.7,-1,

# Part of the list above in order of count of non-hydrogen atoms, low to high.
SMILES,YopH inh,Mtb bLac sens,Mtb H37Rv,RecA intein inh,Arbovirus inh,others
COc1cccc(NC(=O)N2CCOCC2)c1,-26,-2,-8%,4.8,12,
Cc1ccsc1/C=N/NC(=O)Cc1cccn1C,-20,3,-7%,1.5,5,
CC1=CC(=O)CC(C)(C)C1(O)/C=C/C(C)=C/C(=O)O (centres undefined),/,-1,-8%,-2.0,/,
CCn1c(SCc2ccccc2)nc2c(c1=O)SCC2,/,5,2%,12,1,
C/C(N)=C(/C#N)C(=O)COC(=O)COc1ccc(Cl)cc1,-22,-3,0%,-0.9,18,
Cc1cc2cc(CNC(=O)Nc3ccccc3)ccc2n1C,-40,14,4%,0.3,-5,
Cc1ccccc1-c1nnc(SCC(=O)NC2CCCCC2)o1,-34,71,3%,0.8,5,
COc1cccc(/C=N/NC(=S)NCCc2ccccc2)c1OC,/,2,/,4.5,/,
Cc1cccc2[nH]c(CN(C)C(=O)C3CCC(=O)N(C4CC4)C3)nc12 (centres undefined),/,4,/,-1.5,/,
FC(F)Oc1ccc(NC(=S)N2CCN(Cc3ccccc3)CC2)cc1,/,-18,2%,3.0,15,
Cc1ccc(CS(=O)Cc2ccc(C(=O)NCc3ccccc3Br)o2)cc1 (centres undefined),/,2,/,-1.2,/,
Cc1ccc(C)c(S(=O)(=O)N2CCN(C(=O)CSc3ccccc3F)CC2)c1,/,-15,/,0.4,/,
C[C@@]12CCC=C[C@H]1[C@H](c1ccc3ccccc3c1Br)N(Cc1ccccc1)C2=O,/,7,-3%,13,/,
CC(C)C[C@H](NC(=O)OC(C)(C)C)c1nnc(SCC(=O)Nc2ccc(Br)cc2)o1,-32,-9,-3%,2.5,8,
COCCn1cnnc1SCC(=O)Nc1cccc(S(=O)(=O)N(C)c2ccccc2)c1,/,-5,-5%,-3.5,1,
CCN(CC(=O)Nc1c(F)cccc1F)C(=O)C1CCCN(C(=O)c2ccc(Cl)cc2)C1 (centres undefined),/,-4,/,7.7,/,
CC(C)Cn1c(N)c(C(=O)COC(=O)c2cc(-c3ccccc3)nc3ccccc23)c(=O)n(C)c1=O,-20,-6,7%,4.0,-1,
Cc1ccc(C2CC(C(F)(F)F)n3nc(C(=O)Nc4c(C)n(C)n(-c5ccccc5)c4=O)cc3N2)cc1 (centres undefined),/,-5,2%,-5.0,-1,

# (list continues)
SMILES,YopH inh,Mtb bLac sens,Mtb H37Rv,RecA intein inh,Arbovirus inh,others
CCC(Cc1ccccc1)NC(=O)C1CCN(S(=O)(=O)c2ccc3c(c2)CC(C)N3C(C)=O)CC1 (centres undefined),/,9,/,0.2,/,
CC1(C)CC2CC(C)(CN2C(=S)Nc2ccccc2F)C1 (centres undefined),/,7,-1%,-1.2,6,
CCC(C)NCCOCCOc1ccccc1-c1ccccc1 (centres undefined),-37,-19,7%,0.7,0,
Cc1ccc(SCc2cc(=O)[nH]c(SCC(=O)Nc3cc(Cl)ccc3Cl)n2)cc1,/,-6,2%,-1.8,3,
O=C(Nc1ccc(Nc2ccccc2)cc1)c1ccc(Br)o1,-41,66,/,9.2,-32,
COc1ccc(/C=N/NC(=O)CN2CCCc3ccccc32)c(OC)c1,/,-7,-6%,0.3,/,
CCOc1cccc(C(=O)Nc2nnc(-c3cccs3)s2)c1,-12,-1,-5%,-4.0,3,
O=C(OCC(=O)N1CCc2ccccc21)c1c2c(nc3ccccc13)CCCC2,-30,2,58%,6.9,13,
CC(OC(=O)CSc1ccc(F)cc1)C(=O)NC1(C#N)CCCCC1 (centres undefined),/,-19,/,0.7,/,
C=CCN1C(=O)/C(=C\c2ccc(Oc3nc(N4CCOCC4)nc(N4CCOCC4)n3)c(OC)c2)SC1=S,/,-5,-1%,-1.9,1,
C/C(N)=C(/C#N)C(=O)CSc1nc2ccccc2c(=O)n1CCCOC(C)C,11,2,5%,2.4,-6,
O=C(NCC1CCCO1)c1cc(S(=O)(=O)Nc2ccc(Br)cc2)ccc1Cl (centres undefined),/,1,-6%,0.9,-6,
COc1ccc(-c2csc(-c3cccnc3)n2)cc1C,/,73,3%,7.2,-4,
Cc1ccc(OCCSc2nc3ccccc3n2CC(=O)O)c(C(C)C)c1,/,1,/,4.8,/,
COc1cc2c(cc1OC)C(c1cc3cccc(C)c3[nH]c1=O)N(C(=O)c1ccco1)CC2 (centres undefined),/,4,/,1.1,/,
Cc1c[n+](C)ccc1CC1C([N+](=O)[O-])=C[N-]c2ncnn21 (centres undefined),/,/,5%,/,1,
COc1cc2oc3ccccc3c2cc1N(CC(=O)N(C)C)S(=O)(=O)c1ccc(C)cc1,-23,-9,-4%,-5.5,-21,
Cc1cc(C)c(NC(=S)NCCO)c(C)c1,/,-10,-3%,-1.4,/,
O=C(CSc1nc(N2CCCCC2)nc(N2CCCCC2)n1)Nc1nccs1,32,-12,1%,1.5,-1,
CCOc1ccc(N(CC(=O)NC(C)CC)S(=O)(=O)c2c(C)noc2C)cc1 (centres undefined),/,/,-13%,/,4,Arbovirus inh repeat=-2
Cc1c(CN(C)C(=O)/C=C/c2ccc([N+](=O)[O-])cc2)cnn1C,-26,-1,-4%,1.3,1,
COc1cc(Cl)cc(C2NC(=O)NC(C)=C2C(=O)NCc2ccccc2)c1O (centres undefined),-23,5,10%,0.3,5,
Cc1c(C(=O)OCCOc2ccccc2)[nH]c2c1C(=O)CCC2,8,8,23%,2.0,0,
C=CCN1C(=O)c2ccccc2C1(O)Cc1ccccc1 (centres undefined),/,-9,/,-5.3,/,
COc1ccc(C2Nc3ccccc3C(=O)N2Cc2ccco2)cc1COc1ccc([N+](=O)[O-])cc1 (centres undefined),-41,3,2%,2.5,-11,
# Further compounds.
SMILES,YopH inh,Mtb bLac sens,Mtb H37Rv,RecA intein inh,Arbovirus inh,others
O=C(c1cc(-c2ccccc2)nc2ccccc12)N1CCc2ccccc2C1,-29,3,16%,20,9,
Cc1ccc(C(NC(=O)C2CCCCC2)c2c(O)ccc3ccccc23)cc1 (centres undefined),-20,7,10%,14,1,
O=C(Nc1ccc2nccnc2c1)c1cnccn1,-6,-3,4%,-1.1,-3,
S=c1[nH]nc(COc2ccccc2)n1/N=C/c1cccnc1,-18,-11,0%,-2.2,-2,
Cc1ccn2c(Nc3ccc4c(c3)OCO4)c(-c3ccc(O)cc3)nc2c1,/,16,18%,-0.4,/,
Nc1ccc(-c2ccc(N)c([N+](=O)[O-])c2)cc1[N+](=O)[O-],/,5,4%,-4.6,-7,
COCCCNC(=O)CCSc1ccc(C)cc1,-35,4,8%,1.1,-1,
CCc1ccc(NC(=S)Nc2cccc(OC)c2)cc1,-17,92,48%,3.5,17,
Cc1cccc2cc(CN(Cc3ccco3)C(=O)NC3CCCCC3)c(=O)[nH]c12,-36,3,-1%,-0.7,-14,
Cc1ccc(-c2nc3cc(NC(=O)C(C)C)ccc3o2)cc1C,-25,-16,2%,-4.4,-2,
